Screening data from PubChem.
BJeLR viability = BJeLR cell viability loss. BJeLR (HRASV12) viability, CellTiter-Glo ATP luminescence, 48 h; reference of the scale not given here. inhibition, % (test concentration not listed). 300,000 compounds, 0.17% hits. AID 1554;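 active = replicate mean above 50%; inconclusive = above 50% but judged a plate artefact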;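 also: 50 nL library stock added to about 25 µL; numbers are from one replicate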
PrP 5UTR inh = inhibition of PrP 5' UTR reporter expression. cell-based PrP 5' UTR mRNA reporter, plate reader. 340,000 compounds, 0.35% hits. inhibition, % (no concentration beside the values). AID 488862;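 active = every replicate at 50% or more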;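 also: 0 = median of the neutral control wells; tested in H4 reporter cells; numbers are from one replicate; inactives centre near -14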
RN4220 kill = S. aureus RN4220 growth inhibition. OD600, 16 h. inhibition, % (test concentration not listed). 330,000 compounds, 0.33% hits;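 active = z-score of -3 or lower and OD600 up to 0.18 on both plates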;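 also: plate controls were untreated cells for no effect and reference antibiotic for full effect; stock transfer was 100 nL into about 80 µL; one replicate is shown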
ugtP null kill = growth inhibition of S. aureus ugtP deletion strain; growth inhibition, % (no concentration beside the values); S. aureus RN4220 ugtP deletion, OD600 growth, 16 h; some inactives read as strong as hits; AID 1259309; 330,000 compounds, 0.54% hits;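 active = z-score under -3 and OD600 up to 0.15 on both plates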;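 also: plate controls were untreated wells for no effect and antibiotic for full effect; wells of about 80 µL received 100 nL stock; the first replicate is given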
Bead autofluor = compound fluorescence in toxin protease inhibitor counterscreen; compound autofluorescence counterscreen, microsphere flow cytometry; stronger effect = higher value; fluorescence intensity (no concentration beside the values); 360,000 compounds, 3.1% hits;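 active = at least 3 SD above the mean of all compounds, about 16000 in these data; inconclusive = too few beads counted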;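 also: 100 nL of 1 mM stock went into each well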
Mtb hypoxia rep = Mtb hypoxia fluorescent reporter inhibition | M. tuberculosis hypoxia-regulated fluorescent reporter, fluorescence | fluorescence inhibition, % (test concentration not listed) | 300,000 compounds, 0.1% hits | AID 1159583;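 active = 35 to 45% if threefold the growth effect, above 45% if 1.5-fold the growth effect; inactive = the rest, general growth blockers included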;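 also: wells of about 50 µL received 100 nL stock; 0% = vehicle wells and 100% = reference inhibitor wells; whole bacteria with a GFP reporter of the hypoxia response; strong numbers were not always called active; many hits fall short of the cut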
Mtb hypoxia rep growth = also measured in Mtb hypoxia rep; calls as there; growth inhibition, %; measured here: M. tuberculosis growth (absorbance);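 0% = vehicle and 100% = reference antibiotic; read after six days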
Starred values were filed as active, the others as inactive.

CC12CCC(C(=O)NN=Cc3ccc(O)cc3O)(OC1=O)C2(C)C (stereo unspecified) was read as RN4220 kill 1.4, ugtP null kill 3.1, Mtb hypoxia rep 4.8 and Mtb hypoxia rep growth 11.1.
Cc1cc(/C=N/NC(=O)Cn2c3ccccc3c(=O)c3ccccc32)c(C)n1-c1ccc(Cl)cc1 was read as BJeLR viability -8.5, PrP 5UTR inh -9.4 and Bead autofluor 2885.
`CN(CCO)c1cc(N2CCCCC2)c2nonc2c1[N+](=O)[O-]` gave BJeLR viability 5.5, PrP 5UTR inh -47.4, RN4220 kill 2.5, ugtP null kill 5.1, Bead autofluor 2410, Mtb hypoxia rep 3.4 and Mtb hypoxia rep growth 1.1.
For O=C(COC(=O)CCC(=O)c1ccc(Cl)cc1)NC1CC1 the results were BJeLR viability -1.4, PrP 5UTR inh 7.3, RN4220 kill 3.9, ugtP null kill -0.2, Bead autofluor 2494, Mtb hypoxia rep 15.5 and Mtb hypoxia rep growth 2.8.
CCCc1cc(=O)oc2cc(C)cc(O)c12 was read as BJeLR viability 2.5, PrP 5UTR inh -17.3, RN4220 kill -0.3, ugtP null kill -21.6, Bead autofluor 5780, Mtb hypoxia rep -4.9 and Mtb hypoxia rep growth 3.4.
For O=C(CNC(=O)c1ccc(Br)o1)NNC(=O)c1ccccc1F the results were BJeLR viability -6.9, PrP 5UTR inh -8.0, RN4220 kill 2.3, ugtP null kill 11.4, Bead autofluor 4425, Mtb hypoxia rep -4.2 and Mtb hypoxia rep growth -7.5.
Screening O=[N+]([O-])c1cc([N+](=O)[O-])c2cccnc2c1Oc1ccccc1O returned BJeLR viability -3.5, PrP 5UTR inh 20.9, RN4220 kill 17.8, ugtP null kill 1.7, Bead autofluor 10478, Mtb hypoxia rep 5.0 and Mtb hypoxia rep growth -0.3.
For Cc1cc(C)n(CC(O)COc2ccccc2)n1 (stereo unspecified) the results were BJeLR viability 4.4, PrP 5UTR inh 4.0, RN4220 kill -2.5, ugtP null kill -7.1, Bead autofluor 9794, Mtb hypoxia rep 5.4 and Mtb hypoxia rep growth 5.3.
`COc1cccc2cc(CC(=O)c3cc(C)ccc3C)c(=O)oc12` gave BJeLR viability 0.7, PrP 5UTR inh -23.9, RN4220 kill 2.6, ugtP null kill -2.5, Bead autofluor 3945, Mtb hypoxia rep 13.4 and Mtb hypoxia rep growth -0.8.
`CSc1sccc1/C=C(/C#N)C(=O)c1ccco1` gave BJeLR viability 2.1, PrP 5UTR inh -6.4, RN4220 kill 13.3, ugtP null kill 0.4, Bead autofluor 2992, Mtb hypoxia rep 7.7 and Mtb hypoxia rep growth -1.1.
Screening O=C(COc1ccc(Cl)cc1)Nc1ccc2c(c1)CCC2 returned BJeLR viability 5.4, PrP 5UTR inh -1.4, RN4220 kill 3.2, ugtP null kill 6.3, Bead autofluor 2185, Mtb hypoxia rep 7.7 and Mtb hypoxia rep growth -4.8.
O=C(CN1C(=O)c2ccc([N+](=O)[O-])cc2C1=O)NC1CCCCCC1 was read as BJeLR viability -8.0, PrP 5UTR inh -20.3, RN4220 kill 1.4, ugtP null kill 5.6, Bead autofluor 5241, Mtb hypoxia rep 7.5 and Mtb hypoxia rep growth -5.4.
For Cc1ccc(NC(=O)CSCC(N)=O)cc1C the results were BJeLR viability -6.1, PrP 5UTR inh -18.4, RN4220 kill 5.4, ugtP null kill 3.5, Bead autofluor 7893, Mtb hypoxia rep 11.7 and Mtb hypoxia rep growth 6.7.
Screening CCc1cc2c(cc3c(=O)n(CC(=O)N4CCN(C)CC4)ncn32)s1 returned BJeLR viability -3.7, PrP 5UTR inh -8.4, RN4220 kill 3.2, ugtP null kill 4.8, Bead autofluor 4345, Mtb hypoxia rep -3.8 and Mtb hypoxia rep growth -9.7.
Cc1ccc(NC(=S)NC(=O)C2CC2)c(C)c1 was read as BJeLR viability -5.8, PrP 5UTR inh -67.4, RN4220 kill -5.3, ugtP null kill 26.0, Bead autofluor 5957, Mtb hypoxia rep 4.0 and Mtb hypoxia rep growth 11.2.
`NC(=O)C(=O)NN=Cc1c(F)c(F)c(F)c(F)c1F` gave RN4220 kill 4.4, ugtP null kill 5.0, Mtb hypoxia rep -4.2 and Mtb hypoxia rep growth 9.4.
`N#Cc1ccc(Oc2ccc(C#N)c(C#N)c2)cc1C#N` gave PrP 5UTR inh -1.0, RN4220 kill 2.4, ugtP null kill 1.2, Bead autofluor inconclusive, Mtb hypoxia rep 2.9 and Mtb hypoxia rep growth 3.4.
`Cc1ccccc1Nc1nc2ccccc2s1` gave BJeLR viability 11.6, PrP 5UTR inh -56.3, RN4220 kill -5.7, ugtP null kill 3.7, Bead autofluor 8879, Mtb hypoxia rep 0.6 and Mtb hypoxia rep growth -9.4.
Screening CCOc1ccc(N2C(=O)CC(N3CCN(c4ccc(C(=O)c5ccncc5)cc4)CC3)C2=O)cc1 (stereo unspecified) returned BJeLR viability 4.3, PrP 5UTR inh -17.1, RN4220 kill 0.2, ugtP null kill 0.5 and Bead autofluor 3441.
`O=C(CSc1nc(NS(=O)(=O)c2ccccc2)cc(=O)[nH]1)Nc1ccccc1C(F)(F)F` gave BJeLR viability 4.0, PrP 5UTR inh -24.1, RN4220 kill -1.7, ugtP null kill 7.2, Bead autofluor 3621, Mtb hypoxia rep 0.2 and Mtb hypoxia rep growth -3.8.
O=C(c1cccc(Cl)c1)N1CCCC(c2ccc(Cl)cc2)=N1 was read as BJeLR viability -1.0, PrP 5UTR inh -2.6, RN4220 kill -5.0, ugtP null kill -31.4, Bead autofluor 10446, Mtb hypoxia rep 6.9 and Mtb hypoxia rep growth -11.5.
For O=C(CCCn1nnc(-c2cccnc2)n1)c1ccc(F)cc1 the results were BJeLR viability 1.3, PrP 5UTR inh -12.0, RN4220 kill 4.7, ugtP null kill 5.5, Bead autofluor 9874, Mtb hypoxia rep 4.7 and Mtb hypoxia rep growth -0.1.
COc1cccc(/C=C(\C(=O)O)c2ccccc2)c1 was read as BJeLR viability -5.1, PrP 5UTR inh -24.0, RN4220 kill 4.6, ugtP null kill 5.3, Bead autofluor 2172, Mtb hypoxia rep 7.9 and Mtb hypoxia rep growth 1.6.
Cc1ccc(S(=O)(=O)N(Cc2ccc(F)cc2)Cc2ccco2)cc1 was read as BJeLR viability 9.9, PrP 5UTR inh -28.9, RN4220 kill 1.3, ugtP null kill 18.7 and Bead autofluor 2409.
Screening CN(C)CC(C)(C)CNS(=O)(=O)c1ccc(OC(F)(F)F)cc1 returned BJeLR viability 2.2, PrP 5UTR inh 58.7*, RN4220 kill -2.8, ugtP null kill -0.5, Bead autofluor 4140, Mtb hypoxia rep 6.4 and Mtb hypoxia rep growth -5.9.
Screening CCCSc1nnc(NC(=O)CSc2nc3[nH]c(=O)cc(O)c3s2)s1 returned PrP 5UTR inh -4.7, RN4220 kill 1.4, ugtP null kill -5.0, Bead autofluor 3757, Mtb hypoxia rep -0.8 and Mtb hypoxia rep growth 12.3.
Cc1ccccc1C(=O)O/N=C(\N)c1cccc([N+](=O)[O-])c1 was read as BJeLR viability 8.4, PrP 5UTR inh -66.7 and Bead autofluor 10299.
`Cc1cc(=O)n2[nH]nnc2n1` gave BJeLR viability -10.9, PrP 5UTR inh -21.2, RN4220 kill 1.0, ugtP null kill 3.6, Bead autofluor 5548, Mtb hypoxia rep -7.0 and Mtb hypoxia rep growth 5.4.
For COc1ccc(C(=O)O/N=C(/c2ccccc2)c2ccncc2)cc1OC the results were BJeLR viability 0.8, PrP 5UTR inh -20.4 and Bead autofluor 5796.
CC(=O)c1cccc(NC(=O)C(NC(C)C)c2ccccc2)c1 (stereo unspecified) was read as BJeLR viability -2.5, PrP 5UTR inh -35.2, RN4220 kill 3.3, ugtP null kill 8.1, Bead autofluor 6236, Mtb hypoxia rep 4.6 and Mtb hypoxia rep growth 5.5.
For CC1=NN(C(=O)Cc2ccccc2)C(O)(c2cccnc2)C1 (stereo unspecified) the results were BJeLR viability 3.8, PrP 5UTR inh -13.0, RN4220 kill 1.3, ugtP null kill -1.3, Bead autofluor 21683*, Mtb hypoxia rep 1.8 and Mtb hypoxia rep growth 13.4.
For N#Cc1ccc(OCC(O)CN2CCN(CC(O)COc3ccc(C#N)cc3)CC2)cc1 (stereo unspecified) the results were BJeLR viability -11.8, PrP 5UTR inh -19.9, RN4220 kill 1.9, ugtP null kill 8.2, Bead autofluor 4094, Mtb hypoxia rep -2.3 and Mtb hypoxia rep growth -3.7.
Screening CCOC(=O)CNC(=O)/C=C/c1ccc2c(c1)OCO2 returned BJeLR viability -8.5, PrP 5UTR inh -22.4, RN4220 kill 2.3, ugtP null kill 11.6, Bead autofluor 3313, Mtb hypoxia rep -0.4 and Mtb hypoxia rep growth -4.8.
CSc1ncccc1C(=O)OCc1cccc([N+](=O)[O-])c1 was read as BJeLR viability 2.6, PrP 5UTR inh -10.2, RN4220 kill 5.8, ugtP null kill 5.2, Bead autofluor 4412, Mtb hypoxia rep -13.4 and Mtb hypoxia rep growth -4.9.
`Cc1c(CC(=O)O)c(=O)oc2cc3c(cc12)CCC(C)(C)O3` gave BJeLR viability -8.7, PrP 5UTR inh -10.8, RN4220 kill 1.9, ugtP null kill 3.6, Bead autofluor 3206, Mtb hypoxia rep 1.9 and Mtb hypoxia rep growth -4.3.
For Cc1ccc(S(=O)(=O)Cc2ccc(C(=O)N3CCCCC3C)cc2)cc1 (stereo unspecified) the results were BJeLR viability -7.0, PrP 5UTR inh -4.7, RN4220 kill -0.8, ugtP null kill 1.0, Bead autofluor 5900, Mtb hypoxia rep 4.2 and Mtb hypoxia rep growth 6.8.
`Oc1ccc(C(Cc2ccccn2)=NNc2ccccc2)c(O)c1` gave RN4220 kill 23.4, ugtP null kill 7.7, Mtb hypoxia rep -2.2 and Mtb hypoxia rep growth -3.7.
`Cc1cc2c(cc1C)NC(c1cccnc1)C1=C(CC(C)(C)CC1=O)N2` (stereo unspecified) gave BJeLR viability 13.6, PrP 5UTR inh -16.3, RN4220 kill 4.4, ugtP null kill 2.4, Bead autofluor 2468, Mtb hypoxia rep -2.4 and Mtb hypoxia rep growth 3.6.
Cc1ccc2oc(C(=O)N3CCC(C(N)=O)(N4CCCCC4)CC3)c(C)c2c1 was read as BJeLR viability -1.7, PrP 5UTR inh -3.5, RN4220 kill 0.6, ugtP null kill 6.2, Bead autofluor 5840, Mtb hypoxia rep 6.4 and Mtb hypoxia rep growth 10.8.
`CN(C)CCN(CC1CCCN(Cc2ccccc2F)C1)C(=O)c1ccc(Cl)cc1` (stereo unspecified) gave BJeLR viability -2.3, PrP 5UTR inh -42.1, RN4220 kill 3.6, ugtP null kill 5.0, Bead autofluor 3527, Mtb hypoxia rep 17.7 and Mtb hypoxia rep growth 10.0.
Cc1ccc(CNS(=O)(=O)c2c(C)[nH]c(C)c2C(=O)N2CCCC2)cc1 was read as BJeLR viability 1.9, PrP 5UTR inh -2.5, RN4220 kill 3.0, ugtP null kill 0.5, Bead autofluor 5791, Mtb hypoxia rep 3.5 and Mtb hypoxia rep growth 7.6.

Five structures from above, sorted by molar mass, largest number first.
`CN(C)CCN(CC1CCCN(Cc2ccccc2F)C1)C(=O)c1ccc(Cl)cc1` (stereo unspecified) gave BJeLR viability -2.3, PrP 5UTR inh -42.1, RN4220 kill 3.6, ugtP null kill 5.0, Bead autofluor 3527, Mtb hypoxia rep 17.7 and Mtb hypoxia rep growth 10.0.
Cc1ccc2oc(C(=O)N3CCC(C(N)=O)(N4CCCCC4)CC3)c(C)c2c1 was read as BJeLR viability -1.7, PrP 5UTR inh -3.5, RN4220 kill 0.6, ugtP null kill 6.2, Bead autofluor 5840, Mtb hypoxia rep 6.4 and Mtb hypoxia rep growth 10.8.
For Cc1ccc(S(=O)(=O)Cc2ccc(C(=O)N3CCCCC3C)cc2)cc1 (stereo unspecified) the results were BJeLR viability -7.0, PrP 5UTR inh -4.7, RN4220 kill -0.8, ugtP null kill 1.0, Bead autofluor 5900, Mtb hypoxia rep 4.2 and Mtb hypoxia rep growth 6.8.
`Cc1cc2c(cc1C)NC(c1cccnc1)C1=C(CC(C)(C)CC1=O)N2` (stereo unspecified) gave BJeLR viability 13.6, PrP 5UTR inh -16.3, RN4220 kill 4.4, ugtP null kill 2.4, Bead autofluor 2468, Mtb hypoxia rep -2.4 and Mtb hypoxia rep growth 3.6.
CSc1ncccc1C(=O)OCc1cccc([N+](=O)[O-])c1 was read as BJeLR viability 2.6, PrP 5UTR inh -10.2, RN4220 kill 5.8, ugtP null kill 5.2, Bead autofluor 4412, Mtb hypoxia rep -13.4 and Mtb hypoxia rep growth -4.9.
